# Bioassay records: PubChem, Fisher Drug Discovery Resource Center
# NPYLR7 ag – agonists of mosquito NPYLR7 receptor, primary screen, cell-based, Aedes aegypti, calcium fluorescence, mosquito biting behavior; Aedes aegypti neuropeptide Y-like receptor 7 (NPYLR7); HEK293T NPYLR7/Galpha15, GCaMP6s calcium fluorescence; activation, % at 10 µM; actives 0.15% (n = 270,000); AID 1259423, 2018; in the data active = activation above about 40%;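 note: 0% = vehicle and 100% = reference agonist at the receptor; some compounds past the cut are filed as inactive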
# NPYLR7 ag max-min – recorded beside NPYLR7 ag, whose call it bears; activation, %; measured here: Max-Min RFU normalised activation; some inactives read as strong as hits;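 span of the calcium signal over five minutes; 0% = vehicle and 100% = native peptide agonist; compound fluorescence can raise it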
# * = called active by the depositor; & = joins results of further samples.
# Results follow in this order: NPYLR7 ag	NPYLR7 ag max-min
COCCN(Cc1c(-c2ccccc2)noc1N1CCCC1)C(=O)c1ccc(OC)cc1
    -6	-2
Cc1ccc(C)c(NC(=O)Cc2nc(CN3CCNC(=O)C3)cs2)c1
    9	8
CCOC(=O)[C@@H]1CSC2(CCN(C(=O)C(C)ON=C(C)C)CC2)N1 (stereo partly specified)
    1	0
Cc1ccc2nc(C3CCCN3CCC(=O)O)[nH]c2c1 (stereo unspecified)
    1	-3
CC1CN(C(C(=O)NCc2noc(-c3cccs3)n2)C(C)C)CC(C)O1 (stereo unspecified)
    8	9
Cc1csc(=O)n1CC(=O)N1CCCCCC1C1CCCCC1 (stereo unspecified)
    1	-2
Cc1cc(Oc2ccccc2C)nc(SCc2ccc([N+](=O)[O-])cc2)n1
    1	14
CC(C)N(Cc1ccc(C(O)(c2ccc(F)cc2)c2ccc(F)cc2)o1)Cc1cccs1
    18	22
CC1CN(C(C)C(=O)NC(=O)NC2CC2)CCO1 (stereo unspecified)
    4	2
C=CCN1C(=O)c2ccccc2NC1c1ccc(OCCO)cc1Br (stereo unspecified)
    19	18

# The list goes on.
# Results follow in this order: NPYLR7 ag	NPYLR7 ag max-min
COc1cc(-c2nn(CN3CCN(c4ccccn4)CC3)c(=S)o2)cc(OC)c1OC
    4	2
CC(NC(=O)c1cc(-c2ccc(F)cc2)nc2cc(-c3ccccc3)nn12)c1ccccc1 (stereo unspecified)
    12	10
CC(=O)OC(C(=O)N(Cc1cccc(Cl)c1)Cc1nc2cc(Cl)ccc2o1)c1ccccc1 (stereo unspecified)
    -3	-13
COc1cc(-c2cc(Cl)c3c(c2)CC(CN)O3)nc(N)n1 (stereo unspecified)
    -3	-2
CCC(C)NC(=O)CSc1nnc(C)n1-c1ccccc1 (stereo unspecified)
    5	1
O=C(c1cccnc1)N1CCC(N2CC[C@@H](c3ccc(F)cc3)[C@H](O)C2)CC1
    1	-5
Cc1cnc(C(=O)OCC(=O)NN2C(=O)NC3(CCC(C)CC3)C2=O)cn1 (stereo unspecified)
    0	-4
N#Cc1ccc(S(=O)(=O)N2CCC(Cc3ccc4c(c3)OCO4)CC2)cc1
    1	2
COCCn1c(=NC(=O)C2=COCCO2)sc2ccccc21
    7	6
O=C(CCCCCC(=O)Oc1ccc2ccc(=O)oc2c1)Oc1ccc2ccc(=O)oc2c1
    26	16

# Next section
# Results follow in this order: NPYLR7 ag	NPYLR7 ag max-min
Clc1ccc2nc(N3CCN(C4CCCCC4)CC3)c3nncn3c2c1
    12	3
CN(C)CC1(O)CCN(C(=O)Cn2c(C3CC3)nc3ccccc32)C1 (stereo unspecified)
    11	7
O=C(Cn1nc(-c2ccco2)ccc1=O)NCCc1ccccc1
    9	0
Cc1cc2cc(CCNC(=O)c3ccccc3C(F)(F)F)c(=O)[nH]c2cc1C
    0	54
CON=C(C(=O)NC1C(=O)N2C(C(=O)O)=C(COC(C)=O)CSC12)c1csc(N)n1 (stereo unspecified)
    -3	-8
CC(C)(C)n1nc2c(c1NC(=O)COc1ccc(Cl)cc1Cl)CSC2
    -2	-2
O=C(NCc1ccccc1Cl)C(O)(c1ccccc1)c1ccccc1
    -5	-6
C#CCn1c(=NC(=O)C2CC2)sc2cccc(OCC)c21
    4	5
CC1(C(=O)Nc2ccc(F)cc2F)CCN1C(=O)Cc1ccc(Cl)cc1Cl (stereo unspecified)
    -6	-6
Cc1ccc(-n2nc(-c3ccccc3)cc2NC(=O)CN(CC(C)C)C(=O)c2ccc(Cl)c(Cl)c2)c(C)c1
    19	25

# Entries of single compounds from above.
# Entry for O=C(Cn1nc(-c2ccco2)ccc1=O)NCCc1ccccc1 = NPYLR7 ag: 9; NPYLR7 ag max-min: 0
# Entry for Cc1csc(=O)n1CC(=O)N1CCCCCC1C1CCCCC1 (stereo unspecified) = NPYLR7 ag: 1; NPYLR7 ag max-min: -2

# Remaining list, next part
# Results follow in this order: NPYLR7 ag	NPYLR7 ag max-min
COc1ccc(C2=NN(c3nc(-c4ccccc4)c4ccccc4n3)C(c3ccc(Br)cc3)C2)cc1 (stereo unspecified)
    12	6
COc1ccc(N=c2scc(-c3cc(OC)ccc3OC)n2N=C2CCCC2)cc1
    -11	-15
CNC(=O)[C@@H]1C[C@@H](N)CN1Cc1cc2ccc(C)cc2nc1N1CCOCC1
    15	-1
CCCCn1c(S(=O)(=O)CC(=O)N(CC)C2CC2)nc(C)c1C
    -1	-1
CC(O)CSc1nc2c(c(=O)[nH]c(=O)n2C)n1C(C)C (stereo unspecified)
    5	4
Cc1cc(NC(=O)C2(C)CCN2C(=O)C(C)(C)c2ccccc2)no1 (stereo unspecified)
    -6	-4
Cc1nc(-c2ccc(F)cc2)sc1C(=O)Nc1cccnc1
    11	5
Cc1ccc(NC(=O)CN2CC(C(N)=O)O[C@H](C)C2)cc1C (stereo partly specified)
    -7	-6
Cn1cc(C(=O)N2CCN(CC(=O)OCc3ccccc3)CC2)c2nn(-c3ccccc3)c(=O)c-2c1
    -7	-11
CN(C(=O)Cn1nc(-c2ccco2)c2sc(N3CCCC3)nc2c1=O)c1ccccc1
    -3	-6

# Other records.
# Results follow in this order: NPYLR7 ag	NPYLR7 ag max-min
O=C(Nc1nc(-c2cc3ccccc3oc2=O)cs1)c1ccc(Cl)cc1Cl
    3	-3
Cc1ccsc1CNC(=O)NCc1cc(C#N)ccc1F
    -4	-5
COc1ccc(C2c3ccsc3CCN2C(=O)CN(C(=O)c2cc(OC)cc(OC)c2)C(C)(C)C)cc1 (stereo unspecified)
    16	15
Cc1ccc(N=C2NC(=O)/C(=C\c3cc(C)n(-c4cccc([N+](=O)[O-])c4)c3C)S2)cc1
    -3	-7
COCc1cc(C)nc(OCC(=O)N/N=C\c2c(O)ccc3ccccc23)c1C#N
    4	8
O=C(c1ccccc1-n1cncn1)N1CCCC(N2CCCC2)C1 (stereo unspecified)
    3	0
COc1ccc(-c2cc(C(=O)NCC(c3ccco3)N(C)C)c3ccccc3n2)cc1 (stereo unspecified)
    1	3
Cn1nccc1C(=O)N1CCCC(Nc2ccc(F)cc2)C1 (stereo unspecified)
    2&1	-2&-2
Cc1cc(C(=O)N2CCC2(C)C(=O)NS(=O)(=O)c2cccc(F)c2)nn1C (stereo unspecified)
    6	7
CCN(CC)CCNC(=O)c1n[nH]c(C(C)C)c1Br
    0	4

# Going on with the list:
# Results follow in this order: NPYLR7 ag	NPYLR7 ag max-min
Cc1nn2c(=O)[nH]c(SCC(=O)Nc3ccc4c(c3)OCO4)nc2c1-c1ccccc1
    13	5
O=C(c1cccc([N+](=O)[O-])c1)N(CCCN1CCOCC1)c1nc2c(F)cccc2s1
    -5	-9
Nc1ccc(S(=O)(=O)C(F)F)cc1
    -7	-7
CCOc1ccc(CNC2CCCN(Cc3ccccc3F)C2)cc1CO (stereo unspecified)
    12	6
Cc1ccc(-n2ncc3c(-n4nc(C)cc4NC(=O)COc4ccccc4)ncnc32)c(C)c1
    9	7
O=C(CSc1nnc(-c2cccnc2)n1-c1ccccc1F)NCC1CCCO1 (stereo unspecified)
    33	29
O=S(=O)(c1c(Cl)nc2sccn12)N1CCn2cncc2C1
    1	-5
O=C(CSc1nnc(CNC(=O)c2ccco2)n1-c1ccc(F)cc1)Nc1ccc(F)cc1
    -1	1
COc1ccc(C(=O)NC2CC2)cc1Oc1nc(Cc2ccccc2)ns1
    -3	8
CC1=C(C#N)C(c2ccccc2OC(C)C)C2=C(CC(c3ccccc3)CC2=O)N1 (stereo unspecified)
    -1	-2

# The results go on.
# Results follow in this order: NPYLR7 ag	NPYLR7 ag max-min
C=CCN(Cc1cccnc1)C(=O)[C@@]12CC[C@@H](C1)C(C)(C)C2=C
    0	-8
COC(=O)C(CCSC)NC(=O)c1ccc2nc(C3CCCCC3)oc2c1 (stereo unspecified)
    27	19
Cc1ccc(NC(=O)N2CCN(C(C(=O)N3CCC(C)CC3)C3CCCC3)CC2)cc1 (stereo unspecified)
    -10	-9
CN(C)S(=O)(=O)c1ccc(C(=O)Nc2ncnc3sccc23)cc1
    -10	-11
CCC(C)NC(=O)CSc1nc2ccccc2c(=O)n1C(C)COC (stereo unspecified)
    2	1
COCCn1c(C2CC(=O)N(c3ccccc3F)C2)nc2ccccc21 (stereo unspecified)
    2	-1
O=C(CN1C(=O)C2CCCCN2C(=O)c2ccccc21)NCCNc1cccc2ccccc12 (stereo unspecified)
    6	9
Cc1ccc(C)c(S(=O)(=O)N2CCC(NC(=O)c3cccs3)CC2)c1
    9	7
O=C(c1csc(CSc2nnc(-c3cccnc3)n2-c2ccccc2)n1)N1CCC2(CC1)OCCO2
    6	15
CCC(=O)N1CCCN(c2nc(C)nc(C)c2C(C)C)CC1
    14	4

# Going on with the list.
# Results follow in this order: NPYLR7 ag	NPYLR7 ag max-min
Cc1cccc(S(=O)(=O)Nc2ccc(Nc3ccc(-n4cccn4)nn3)cc2)c1
    -5	-12
O=C1/C(=C/c2ccc(-c3ccc([N+](=O)[O-])cc3)o2)C=C(c2ccccc2)N1c1cccc(Br)c1
    -3	0
O=C1c2cccn2CC1C(c1ccncc1)C1Cn2cccc2C1=O (stereo unspecified)
    1	0
CC(C)(C)CC(=O)N1CCC(C(NC(=O)C2CC2)C(=O)N2CCCC2)CC1 (stereo unspecified)
    4	6
O=C(O)CCn1cc(CN2CCOCC2)c(=O)[nH]c1=O
    -5	-4
CC1CCCC(NC(=O)CN2CCN(Cc3ccco3)CC2)C1C (stereo unspecified)
    0	0
C[C@H]1O[C@@H](O[C@H]2[C@@H](O)C[C@H](O[C@H]3[C@@H](O)C[C@H](O[C@H]4CC[C@]5(C)C6CC[C@]7(C)[C@@H](C8=CC(=O)OC8)CC[C@]7(O)C6CC[C@@H]5C4)O[C@@H]3C)O[C@@H]2C)C[C@H](O)[C@@H]1O (stereo partly specified)
    -6	-8
CC(=O)N1CCc2c(sc(NC(=O)c3ccc(C)c(C)c3)c2-c2nc3ccccc3s2)C1
    2	2
CC1=NN(CC(=O)c2ccccc2)c2nc3c(c(=O)n(C)c(=O)n3C)n2C1C (stereo unspecified)
    5	2
O=C(NCCN1CCOCC1)C1CCN(c2ncc(C(F)(F)F)cc2Cl)CC1
    -8	-10

# Additional entries
# Results follow in this order: NPYLR7 ag	NPYLR7 ag max-min
CCCCN(CC(=O)N(Cc1cccn1Cc1ccccc1Cl)CC(C)C)S(=O)(=O)c1ccc(Br)cc1
    -5	6
CC1CN(C(=O)OC(C)(C)C)CCN1C(=O)CC1CCCO1 (stereo unspecified)
    10	10
COC(=O)c1cn(C(=O)CCCc2ccccc2)c2ccccc12
    -9	-11
CC(C)CCSc1nc(N)c2c3c(sc2n1)COC(C(C)C)C3 (stereo unspecified)
    8	5
CCN(c1ccc(NC(=O)c2ccc3c(c2)OCO3)cc1)C(C)C
    4	2
CCc1nc2ccc(C(=O)N(CC)CCN(C)C)cn2c1N(C)Cc1cccs1
    31	16
CC(=O)Nc1cccc(NC(=O)CCc2c(C)nn(-c3nc(C)cc(=O)[nH]3)c2C)c1
    6	-3
Cc1cc(C)c(S(=O)(=O)NNC(=O)c2cc(Br)cn2C)c(C)c1
    0	4
Cc1cccc(N2CCN(Cn3nc4n(c3=S)CCCCC4)CC2)c1C
    23	15
Cc1ccc2nsnc2c1S(=O)(=O)N1C[C@H]2CC=CC[C@H]2C1
    -4	-5

# (list continues)
# Results follow in this order: NPYLR7 ag	NPYLR7 ag max-min
CCn1c(C2CCN(C(=O)C3CC(=O)c4ccccc43)CC2)nn(C)c1=O (stereo unspecified)
    6	4
CCCCCC(=O)Nc1c(-c2ccccc2C)nc2cc(C)ccn12
    -4	2
COCCN(CCOC)C(=O)CC1(CC(=O)O)CCCC1
    -7	-8
CN1C(=CC=C(C#N)C#N)C(C)(C)c2ccccc21
    5	6
Cc1ccc(-c2ccc(=O)n(CCCNC(=O)Cc3ccccc3Cl)n2)cc1
    -2	-5
COC(=O)COc1nsnc1N1CCOCC1
    -3	-2
Cc1cc(C)nc(CCNC(=O)c2cccc(NCc3sccc3C)c2)n1
    5	-3
CC1(C(=O)O)CCN1C(=O)c1ccc(Cl)nc1 (stereo unspecified)
    0	-2
Cc1cc(C)n(CC2(CNC(=O)CN3CCCN(C)CC3)CC2)n1
    -2	-3
CCC(=O)N1CCN(c2cccc(Cl)c2)C(=O)C1C (stereo unspecified)
    -2	3

# (listing goes on)
# Results follow in this order: NPYLR7 ag	NPYLR7 ag max-min
CC(=O)NCCn1cnc(-c2ccccc2)c1-c1cc2ccccc2n(C)c1=O
    0	-5
CC(C)(C)OC(=O)NC(C)(C)C(=O)NCc1ccc(-n2cccn2)cc1
    1	-1
Cn1c(=O)[nH]c(=O)c2c1nc(N1CCN(Cc3ccccc3)CC1)n2CCSc1ncccn1
    0	5
CCCN1CCC(C)(C(=O)Nc2cccc(Oc3ccccc3)c2)C1 (stereo unspecified)
    3	1
COc1cccc(CNC(=O)N2CCN(c3ncccc3C(=O)NCc3ccc4c(c3)OCO4)CC2)c1
    0	-5
CCOc1ccccc1C1NC(=O)N(C)C(C)=C1C(=O)OCCOc1ccccc1 (stereo unspecified)
    -6	-10
CCC(C)N1CCN(Cc2cccn2C)CC1 (stereo unspecified)
    8	1
CCOC(=O)c1c(C)n(C)c2ccc(OC(=O)c3ccc([N+](=O)[O-])cc3)cc12
    1	3
O=C(c1cccc(C(F)(F)F)c1)N1CCN(c2ccc(-n3cccn3)nn2)CC1
    -1	-6
O=C(c1cc2cc(Cl)ccc2[nH]1)N1CCC(Oc2ccccc2)CC1
    6	4
Cn1cccc(C(=O)Nc2ccc3c(c2)N(C(=O)C(C)(C)C)CC3)c1=O
    2	4

# Part of the list above, with each value named.
CC1=C(C#N)C(c2ccccc2OC(C)C)C2=C(CC(c3ccccc3)CC2=O)N1 (stereo unspecified)
- NPYLR7 ag = -1
- NPYLR7 ag max-min = -2
C=CCN(Cc1cccnc1)C(=O)[C@@]12CC[C@@H](C1)C(C)(C)C2=C
- NPYLR7 ag = 0
- NPYLR7 ag max-min = -8
COC(=O)C(CCSC)NC(=O)c1ccc2nc(C3CCCCC3)oc2c1 (stereo unspecified)
- NPYLR7 ag = 27
- NPYLR7 ag max-min = 19

# A portion of the library. The share of hits here may be higher or lower than overall.
